Vaccinia mCherry = qHTS for Stage-Specific Inhibitors of Vaccinia Orthopoxvirus: mCherry Reporter Primary qHTS | Vaccinia virus mCherry reporter infection, fluorescence; about a quarter of the inactives have no number | Potency, µM (series often up to 36.5 µM), inactives show at the highest dose activity change, negative = inhibition, most hits filed as inhibitors | 0.63% of 310,000 active | AID 720579, 2013; active = well fitted inhibition curve with a large enough effect; inconclusive = small, poorly fitted or top-dose-only effect; inactive = no such curve, though single readings can be large or run the other way; tested in A549 cells; further: nearly all actives have a fitted effect of over 35% in size; inactives centre near -10
VACV Venus inh = qHTS for Stage-Specific Inhibitors of Vaccinia Orthopoxvirus: Venus Reporter Primary qHTS; Vaccinia virus Venus reporter expression, fluorescence; Potency, µM (titrated, usually from 36.5 µM), without a hit: at the highest dose activity change, negative = inhibition, hits mostly inhibitors; 0.46% of 330,000 active; AID 720580, 2013; active means well fitted inhibition curve with a large enough effect; inconclusive means small, poorly fitted or top-dose-only effect; inactive means no such curve, though single readings can be large or run the other way; tested in A549 cells; further: nearly all actives have a fitted effect of over 30% in size; inactives centre near -10
* = called active by the depositor; i = inactive; ? = inconclusive; / = no result given; [ ] = another dose, or the depositor's remark. On the % scale 0 is the no-effect control and ±100 the full control effect; potency means the concentration at half of the fitted maximal effect. Hits appear at their usual frequency; about 0.87% have a hit in one of these screens.

Order of results: Vaccinia mCherry	VACV Venus inh
COc1ccc(CC(=O)N2CCc3ccccc32)cc1
    /	-20%
COc1ccc(CCn2c(C)cc(C(=O)CN3C(=O)C(=O)N(C4CCCC4)C3=O)c2C)cc1OC
    -13%	-7%
CC(=O)COc1ccc2cc(-c3ccccc3)c(=O)oc2c1
    -6%	-12%
CCc1ccc(-c2nc(SCC(=O)NCCOC)c(-c3ccc(C)cc3)[nH]2)cc1
    -24%	-19%
O=C(Cn1cc2c(n1)CCCCC2)N1CCc2ccccc21
    -13%	-9%
CCC(=O)Nc1c2c(nn1-c1ccc(F)cc1)CS(=O)(=O)C2
    -13%	-7%
O=S1(=O)CC(O)C(NCCO)C1 (centres undefined)
    -7%	-5%
COc1ccc(C(=O)COC(=O)Cn2c(C)csc2=O)c(OC)c1
    i	-19%
COC(=O)C1=C(C)N=C2SC(C)C(=O)N2C1/C=C/c1ccccc1OC (centres undefined)
    ?	-20%
COC(=O)c1ccc(NC(=O)Nc2ccccc2C)cc1
    i	-16%
Cc1ccc(-n2c3c(cc(C(=O)Nc4ccccc4C(N)=O)c2=O)C(=O)CC(C)(C)C3)cc1
    -24%	-18%
CN1CCc2nc(N)c(C#N)c(-c3ccccc3)c2C1
    -20%	-16%
CCOC(=O)C1(C)CCN1C(=O)c1cccc(Cl)c1 (centres undefined)
    -13%	0%
Cc1ccc([C@H]2C[C@H](n3cc(C4CC4)nn3)[C@@H](O)CN2C(=O)c2cccs2)cc1
    -7%	-11%
Cc1ccc(-n2c3nc(=O)[nH]c(=O)c-3cc3cc([N+](=O)[O-])ccc32)cc1C
    -17%	-10%
c1cc(C2N3CCCN2CC3)ccn1 (centres undefined)
    -9%	-18%
O=C(NC(=S)NCCc1ccccc1)c1cccc(Cl)c1
    -13%	-11%
Cc1cc(-c2cc(C(=O)NCc3ccccc3)on2)nc(NCC2CC2)n1
    -27%	-28%
CCOC(=O)N1CCN(C(=O)C2CCC(=O)N(CCc3ccccc3)C2)CC1 (centres undefined)
    i	-9%
CCN(CC)CCOC(=O)c1ccc(NC(=O)c2ccc(Cl)c(S(=O)(=O)N3CCCCCC3)c2)cc1
    ?	-15%

Molecules listed so far with four or more nitrogen atoms (4):
Order of results: Vaccinia mCherry	VACV Venus inh
CN1CCc2nc(N)c(C#N)c(-c3ccccc3)c2C1
    -20%	-16%
Cc1ccc([C@H]2C[C@H](n3cc(C4CC4)nn3)[C@@H](O)CN2C(=O)c2cccs2)cc1
    -7%	-11%
Cc1ccc(-n2c3nc(=O)[nH]c(=O)c-3cc3cc([N+](=O)[O-])ccc32)cc1C
    -17%	-10%
Cc1cc(-c2cc(C(=O)NCc3ccccc3)on2)nc(NCC2CC2)n1
    -27%	-28%

Next part:
Order of results: Vaccinia mCherry	VACV Venus inh
Cn1c(=O)c2sccc2n(Cc2ccccc2)c1=O
    -19%	-15%
O=C(NCc1ccccc1)c1ccccc1NC(=O)C1CCCCC1
    -16%	-9%
CCC(c1nnnn1C(C)(C)C)N1CCN(C(=O)c2ccco2)CC1 (centres undefined)
    i	-3%
COc1ccccc1CNC(=O)c1ccccc1OCc1ccc(F)cc1
    -29%	-21%
NS(=O)(=O)c1ccc(CNC(=O)C(Cc2ccccc2)NS(=O)(=O)c2ccccc2F)cc1 (centres undefined)
    -23%	-12%
COc1ccc(S(=O)(=O)c2c(O)c3ccc(C(=O)Nc4ccc(F)cc4)cc3[nH]c2=O)cc1
    i[7.34 µM]	-14%[7.34 µM]
CCN(Cc1ccccc1)C(=S)NC(=O)c1ccccc1Br
    -13%	-15%
Clc1cccc(/C(Cc2nc3ccccc3[nH]2)=N\Nc2ccccc2)c1
    -11%	?
Cc1cc2c(cc1C)C(c1cccc(OC(C)C)c1)CC(=O)N2 (centres undefined)
    -15%	-22%
CCOC(=O)C(NCCc1ccccc1F)(NC(=O)CC)C(F)(F)F (centres undefined)
    -12%	0%
Cc1ccc(C2=NC3(CCCC3)NC2=S)cc1
    -13%	-18%
O=C(Nc1cccc(F)c1)NC1(C(=O)NCC2CCCO2)CCCCC1 (centres undefined)
    -11%	-6%
CCOC(=O)Cn1c(=O)c2c(nc3n2CCCCN3c2ccc(OCC)cc2)n(C)c1=O
    -5%	-9%
CCc1nc2ccc(C(=O)N(C)Cc3ccccc3)cn2c1N(C)CCCc1ccccc1
    19%	1%
Cc1no[n+]([O-])c1COc1ccccc1/C=C1\NC(=S)NC1=O
    ?	?
COc1ccccc1NC(=O)Cc1nc(CCl)cs1
    -8%	-18%
COC(=O)C(C(=O)Nc1cccc(Cl)c1C)C1CCCC1 (centres undefined)
    ?	-3%
CCOC(=O)N1CCN(C(=O)CSc2ccc(-c3ccccc3OC)nn2)CC1
    -23%	-1%
CCc1ccc(-c2nc(CN3CCC(C(=O)NCCc4ccc(C)cc4)CC3)c(C)o2)cc1
    -17%	-19%
CCCC(=O)Nc1nnc(S(=O)(=O)N(C)Cc2ccc(Cl)cc2)s1
    -3%	-8%
O=C(NCCO)c1nsnc1NCCCl
    4%	-4%
COCCN(C(=O)COC(=O)c1ccc2c(c1)OCO2)c1c(N)n(Cc2ccccc2)c(=O)[nH]c1=O
    i	-16%
CCn1c(SCc2nc(-c3ccccc3)no2)nc2ccccc21
    ?	-2%
C#CCOCCOCCOCCNc1nc(N2CCN(C(=O)[C@H](CCC(=O)O)n3cc([C@@H](N)[C@H](C)CC)nn3)CC2)nc(N2CCN(C(=O)[C@H](CCC(=O)O)n3cc([C@@H](N)CC(N)=O)nn3)CC2)n1
    0%	15%
Cc1cccc(N2CCN(S(=O)(=O)c3cnc[nH]3)CC2)c1C
    -20%	-15%
COc1ccc(C(=O)NC(=O)Nc2cc(C)ccn2)cc1
    -5%	-1%
COc1ccccc1N1CC(C(=O)Nc2cc(C(F)(F)F)ccc2N2CCCC2)CC1=O (centres undefined)
    -3%	-15%
CCOCCCNC(=S)N1CCN(C(=O)C(=O)Nc2ccc(C(=O)OC)cc2)CC1
    -15%	-13%
Nc1cccc2c1C(=O)N(Cc1nnc(-c3ccccc3Br)o1)C2=O
    i	-4%
O=C(/C=C/Nc1ccccc1Br)c1ccccn1
    -13%[1.46 µM]	-14%
O=C(COC(=O)c1ccc2[nH]c3c(c2c1)CCCC3)NC1CCS(=O)(=O)C1 (centres undefined)
    -18%	-21%
Cc1cc(C)nc(-n2nc(C)cc2NC(=O)CN2CCC(C)CC2)n1
    -18%	-25%
CCOc1ccccc1NC(=O)N1CCC(N2CCN(Cc3ccccc3)C(=O)C2=O)CC1
    -12%[7.34 µM]	-13%[7.34 µM]
O=C(NNC(=O)c1ccccc1F)c1ccc2nc[nH]c2c1
    -8%	-8%
CCCc1cc(=O)oc2cc(C)cc(OCC(=O)NC(Cc3ccc(Cl)cc3)C(=O)O)c12 (centres undefined)
    -8%	-8%
CN(C)CCCNc1ncnc2scc(-c3ccccc3)c12
    -13%	-12%
Nc1nnc(CSCc2ccc(Cl)cc2Cl)s1
    -10%	-9%
Cc1noc(C)c1COC(=O)c1cc2c3ccccc3n(C)c2s1
    i	-7%
Cc1cc(C)n(C(=O)C(C(=O)c2ccccc2)C(C)C)n1 (centres undefined)
    -17%	-10%
Cc1cnc(-c2nnc(N(C)C(=O)C3CCCO3)s2)cn1 (centres undefined)
    -17%	-13%

(continued)
SMILES | Vaccinia mCherry | VACV Venus inh
C/C(=N\NC(=O)CN1CCCCC1)c1cccc([N+](=O)[O-])c1 | -8% | -5%
COc1ccc(-c2noc(CCC(=O)Nc3nc4ccccc4s3)n2)cc1 | -3% | -2%
COc1ccc(C(=O)c2cc3cccc(OC)c3o2)cc1 | -6% | -3%
CS(=O)(=O)Nc1ccc(C(=O)Nc2ccc3c(c2)OCO3)cc1 | -14% | -10%
CCOC(=O)C1CCN(C(=O)CN2C(=O)NC(C)(c3ccc4cc(OC)ccc4c3)C2=O)CC1 (centres undefined) | -11% | -2%
O=C(CN1CCN(c2ncc(C(F)(F)F)cc2Cl)CC1)NCCNc1ncc(C(F)(F)F)cc1Cl | / | -9%
COc1ccc(C(=O)NCCc2c[nH]c3ccccc23)cc1OC | i | -13%
CCCCNC(=S)N(CCCO)Cc1cc2cc3c(cc2[nH]c1=O)OCCO3 | -25% | -19%
COC(=O)c1ccc(C)c(NS(=O)(=O)c2ccc(NC(C)=O)cc2)c1 | -11% | -10%
COc1ccc(NC(=S)N2CCCC2c2ccc(OC)c(OC)c2)cc1 (centres undefined) | -14% | -19%
O=C(O)c1ccccc1C(=O)OCC1CCC(=NO)CC1 (centres undefined) | i | -10%
Cc1csc(=O)n1CCC(=O)OCC(=O)Nc1ccc(C(N)=O)cc1 | i | -8%
COc1ccc(C(=O)Cc2ccccc2C(=O)O)cc1 | -11% | -9%
CCOCCCNC(=O)C(NC(=O)c1ccc(=O)[nH]c1)c1ccccc1 (centres undefined) | / | -26%
C[N+](C)(C)CCN1CCc2ccccc21 | 13% | 15%
CN(C)CCCN(C(=O)c1ccc(S(=O)(=O)N2CCc3ccccc3C2)cc1)c1nc2c(F)cc(F)cc2s1 | -32% | -8%
COc1ccc(C(=O)NCCS(=O)(=O)NCc2ccc(C)cc2)cc1 | -11% | -7%
CCn1c(-c2ccccc2F)nc2cc(C(=O)NC(c3ccccn3)C(F)(F)F)cc(NC(C)=O)c21 (centres undefined) | -11% | -6%
Cn1c(CC(=O)Nc2ccccc2)nnc1SCC(=O)c1ccccc1 | / | -16%
N#Cc1nc(-c2ccccc2F)oc1NCCN1CCOCC1 | 4% | 10%
CC(=O)Nc1cccc(N(C(=O)C2COc3ccccc3O2)C(C(=O)NC2CCCCC2)c2cn(C)nc2C)c1 (centres undefined) | i | -5%
Clc1cccc(C2Nc3cccc4cccc(c34)N2)c1Cl | -28% | 0%
COC(=O)c1ccccc1NC(=O)Oc1ccc(C(C)C)cc1 | -20% | -9%
CCOc1ccccc1NC(=O)CSc1ccc2nnc(-c3cccnc3)n2n1 | i | -6%
O=c1cc(-c2ccco2)nc(-c2cccs2)o1 | / | -11%

Profiles, quoted from the list:
`COc1ccc(C(=O)c2cc3cccc(OC)c3o2)cc1` is entered as Vaccinia mCherry: -6%; VACV Venus inh: -3%
`COc1ccc(NC(=S)N2CCCC2c2ccc(OC)c(OC)c2)cc1` (centres undefined) is entered as Vaccinia mCherry: -14%; VACV Venus inh: -19%

Other records
SMILES | Vaccinia mCherry | VACV Venus inh
c1ccc(NC2=Nc3ccccc3CS2)cc1 | i | -15%
COc1ccc(S(=O)(=O)c2ccc(OCC3CO3)cc2)cc1 (centres undefined) | -4% | -4%
CC1(C(=O)NCc2ccccc2)CN(S(C)(=O)=O)CC(=O)N1CCc1ccc(O)cc1 (centres undefined) | -13% | 15%
Cc1c(O)c(=O)c2ccccc2n1C | ? | 1%
C=CCn1c(SCCN)nnc1-c1cccc(S(=O)(=O)N2CCOCC2)c1 | i | -1%
COc1ccc2nc(C)cc(N/N=C/c3cccc(OC)c3O)c2c1 | 1µM* | ?
Cc1c(C(C)(C)O)[nH]c2cc(C(F)(F)F)ccc12 | -12% | -15%
O=C(CSc1nc2ncccc2[nH]1)c1cccc([N+](=O)[O-])c1 | ? | -20%
O=C(CC1CCOCC1)Nc1ccc(Cl)c(Cl)c1 | -10% | -1%
CCOc1ccccc1NC(=O)CN(c1ccc(Cl)cc1)S(C)(=O)=O | i | -5%
O=C(CSc1nnc(NC(=O)C2CC(=O)N(c3ccccc3)C2)s1)NCC1CCCO1 (centres undefined) | -13% | -6%
Cc1cc(C)c(NC(=O)C2CCCO2)c(C)c1 (centres undefined) | -14% | -4%
O=S(=O)(CCc1nc2ccccc2[nH]1)c1ccc(Br)cc1 | -23% | -8%
C[C@H](c1ccccc1)N1C[C@@H](COCc2ccccc2)Oc2cc(N3CC[C@H](O)C3)ccc2S1(=O)=O | i | -5%
Cc1ccc2nc(NC(=O)CSc3nc4c(c(=O)n3C)SC(C)C4)sc2c1 (centres undefined) | ? | ?
CCN1CCN(S(=O)(=O)c2ccc(Cl)c(C(=O)N(C)Cc3cccc(OC)c3)c2)CC1 | -17% | -16%
CCOc1ccc(S(=O)(=O)c2cn(Cc3cc(C)ccc3C)c3ccc(OCC)cc3c2=O)cc1 | -6% | -15%
O=C1NC(=O)C2(Cc3ccccc3N3CCCC32)C(=O)N1 (centres undefined) | -18% | -8%
Cc1cccc(NC(=O)COc2ccccc2C(=O)Nc2ccccc2)c1 | i | -12%
CCOc1ccc(CN2CCN(Cc3c(C)nn(CC)c3C)CC2CCO)cc1 (centres undefined) | i | -13%
CCC(C(=O)OCC(=O)Nc1ccc(OC)cc1OC)c1ccccc1 (centres undefined) | -6% | -4%
O=C(NC1CCCC1)C(c1cccnc1)N(C(=O)c1csnn1)c1ccc(F)cc1 (centres undefined) | -22% | 13%
Cc1ccc(-c2nc(CN3CCN(c4cnccn4)CC3)c(C)o2)o1 | -14% | -11%
COc1ccc2c(C)cc(SCC(=O)Nc3cc(C(N)=O)cc(C(N)=O)c3)nc2c1 | i | -25%
Cc1cc(CNC(=O)c2cccnc2Cl)c2ccccc2n1 | i | -14%
CC[C@H]1C/C=C\Cc2ccccc2[C@H](C(=O)C[C@@H](O)CC(C)=O)OC1=O | i | -10%
